SARS PLpro yeast – blocks SARS-CoV papain-like protease in a yeast assay; S. cerevisiae expressing SARS-CoV PLpro, growth rescue; control for the full effect not named in the record; Potency, µM (series often up to 32.9 µM), for the others: at the top dose activity, positive = growth rescue; 0.19% of 330,000 active; active means well fitted rising curve with a large enough effect; inconclusive means small, poorly fitted or top-dose-only effect; inactive means no such curve, though single readings can be large or run the other way; note: 0% is about no effect; nearly all actives have a fitted effect of over 55% in size; growth read by luminescence after 48 h
Marburg entry inh – Marburg virus entry inhibition. AID 540276. Marburg virus pseudotyped entry inhibition, cell reporter; control for the full effect not named in the record; about a third of the inactives were read at about 46 µM. Potency, µM (titrated, usually from 37.8 µM), for the others: at the top dose activity change, negative = inhibition, actives largely listed as inhibitors. 1.8% of 300,000 active; active = well fitted inhibition curve with a large enough effect; inconclusive = small, poorly fitted or top-dose-only effect, or effect the other way; inactive = flat fitted curve, though single readings scatter; tested in HEK293 cells; about a fifth of its hits are not listed in these tables; note: % is set by controls: 0 for no effect and ±100 for the full control effect; luciferase read-out
RE007 growth inh – less growth of the S. pombe RE007 Vpr strain | 0.21% of 360,000 active | AID 651644 | Potency, µM (series often up to 92.2 µM), inactives show top-dose activity change, negative = less growth | S. pombe RE007 Vpr strain, BacTiter-Glo ATP luminescence, 24 h; control for the full effect not named in the record; active = well fitted falling curve with a large enough effect; inconclusive = small, poorly fitted or top-dose-only effect; inactive = no such curve, though single readings can be large or run the other way;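 note: % is set by controls: 0 for no effect and ±100 for the full control effect; nearly all actives have a fitted effect of over 50% in size; the assay follows cell death caused by Vpr and the record does not say whether a fall means rescue or toxicity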
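Fission yeast RE007 carrying one integrated HIV-1 vpr copy, seeded at OD 0.01 in PMG+AL medium with 23 nL pinned compound. Grown 24 h at 30 degrees; viability read by BacTiter-Glo luminescence after 5 min.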
NS1 function inh – influenza NS1 inhibition. 0.4% of 270,000 active. S. cerevisiae slowed by influenza A NS1, growth recovery by OD600. Potency, µM (series often up to 46.1 µM), for the others: at the top dose activity, positive = more growth. AID 2326; active means well fitted rising curve with a large enough effect; inconclusive means small, poorly fitted or top-dose-only effect; inactive means no such curve, though single readings can be large or run the other way; note: nearly all actives have a fitted effect of over 50% in size
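OD600 was taken as the measure of yeast growth restored by compound in an NS1-expressing S. cerevisiae strain. Cells had been washed out of glucose medium and diluted 1:100 into galactose -URA medium, pH 6.0.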
StopGo reporter – FMDV 2A StopGo reporter, luciferase signal. human cells with a luciferase reporter of 2A StopGo recoding; control for the full effect not named in the record. Potency, µM (doses to about 57.9 µM), without a hit: at the highest dose signal change, negative = less light. 1.2% of 410,000 active; active = well fitted falling curve with a large enough effect; inconclusive = small, poorly fitted or top-dose-only effect; inactive = no such curve, though single readings can be large or run the other way; tested in HEK293T cells; note: % is set by controls: 0 for no effect and ±100 for the full control effect; nearly all actives have a fitted effect of over 45% in size; luciferase light after 4 h
Cruzain inh noDet – blocks cruzain activity in detergent-free assay; P25779; Potency, µM, without a hit: max response, negative = inhibition, actives largely listed as inhibitors; purified cruzain, Z-FR-AMC fluorescence, no detergent; 2.3% of 200,000 active;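 note: plate controls were enzyme without inhibitor for no effect and buffer without enzyme for full effect; nearly all actives have a fitted effect of over 40% in size; top concentration of the series not given in the record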
Target sequence (P25779 123-467 limits assumed): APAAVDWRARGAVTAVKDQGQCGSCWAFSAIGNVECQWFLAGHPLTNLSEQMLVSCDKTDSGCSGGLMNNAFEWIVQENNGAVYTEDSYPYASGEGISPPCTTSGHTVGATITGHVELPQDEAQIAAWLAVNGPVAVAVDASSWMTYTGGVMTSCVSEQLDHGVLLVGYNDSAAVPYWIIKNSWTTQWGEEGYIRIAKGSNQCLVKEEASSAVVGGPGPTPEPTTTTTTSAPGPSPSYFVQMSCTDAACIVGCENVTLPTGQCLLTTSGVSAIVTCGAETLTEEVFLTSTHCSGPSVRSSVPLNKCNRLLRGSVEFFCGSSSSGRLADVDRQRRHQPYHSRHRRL
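Detergent-free condition (0.00005% Triton X-100) in acetate buffer pH 5.5 with DTT. 1.5 nM enzyme and compound were pre-mixed 15 min, then 2 uM Z-FR-AMC substrate added; reaction progress from fluorescence change between first and third reads (60 s).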
Cruzain inh Det – blocks cruzain activity in presence of Triton detergent. P25779. purified cruzain, Z-FR-AMC fluorescence, 0.01% Triton. Potency, µM, for the others: max response, negative = inhibition, hits mostly inhibitors. 0.43% of 200,000 active. AID 1478;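 note: plate controls were neutral wells for no effect and buffer without enzyme for full effect; nearly all actives have a fitted effect of over 40% in size; top concentration of the series not given in the record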
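Detergent-containing arm of a paired screen for aggregation-based inhibition: 0.01% Triton X-100 present. Cruzain at 1.5 nM cleaved 2 uM Z-FR-AMC at pH 5.5 with 5 mM DTT; AMC fluorescence gain over 60 s measured activity.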
Lassa entry inh – Lassa virus entry inhibition; Lassa virus pseudotype entry inhibition, cell reporter; control for the full effect not named in the record; Potency, µM (titrated, usually from 37.9 µM), for the others: at the highest dose activity change, negative = inhibition, usual class: inhibitors; 1.2% of 300,000 active; AID 540256; active means well fitted inhibition curve with a large enough effect; inconclusive means small, poorly fitted or top-dose-only effect, or effect the other way; inactive means flat fitted curve, though single readings scatter; tested in HEK293 cells; note: % is set by controls: 0 for no effect and ±100 for the full control effect; nearly all actives have a fitted effect of over 50% in size; luciferase read-out
An asterisk follows results filed as active; ? = inconclusive; . = no result given; [ ] = another dose, or the depositor's remark. Unless noted, calls come from the whole dose curve; as a rule, active = well fitted curve in the direction sought with a large enough effect; inconclusive = small, poorly fitted or top-dose-only effect, or another doubt; inactive = no such curve, though single readings can be large; an effect the other way counts as inactive or inconclusive. Potency is the fitted concentration of half-maximal effect.

entry | Compound | RE007 growth inh | Cruzain inh noDet | Marburg entry inh | Lassa entry inh | StopGo reporter | Cruzain inh Det | NS1 function inh | SARS PLpro yeast
1 | COc1ccc(CCNC(=O)CCCn2c(=O)c3ccccc3n(Cc3c(C)cc(C)cc3C)c2=O)cc1OC | . | -13% | 5%[46.1 µM] | 15%[46.1 µM] | 6% | -0.2% | . | .
2 | Cc1cc(C(=O)NNC(=O)Nc2ccc(Cl)cc2)no1 | -2% | . | -15%[46.1 µM] | -9% | 0% | . | 0% | 3%
3 | S=C(NCc1ccc(Cl)cc1)Nc1ccccc1Cl | 2% | 9% | ? | 0% | 43%[activator] | -2.3% | 7% | 19%
4 | COC(=O)COc1cc2ccccc2cc1C(=O)Nc1ccccc1 | 5% | . | . | . | 10% | . | 2% | 0%
5 | CC(C)COc1ccccc1C(=O)NC(CO)C(=O)O (configuration not stated) | 1% | -5% | -27% | 17% | -16% | 11% | -9% | -2%
6 | COc1cc2[nH]c(=O)n(CCCCCC(=O)N3CCN(c4cccc(C(F)(F)F)c4)CC3)c(=O)c2cc1OC | . | ? | ? | ? | 22µM* | -9.4% | . | .
7 | O=C(NNC(=O)C1[C@H]2CCCC[C@@H]12)Nc1cccc2ccccc12 (some centres not stated) | -21% | . | -6%[46.1 µM] | 1%[46.1 µM] | 22% | . | -1% | 1%
8 | COc1cc2c(cc1NC(=O)COC(=O)CNC(=O)c1ccccc1)oc1ccccc12 | -14% | . | -10%[46.1 µM] | 24% | 56%[activator] | . | -38% | 0%
9 | COc1ccc(-c2cc(C(=O)N/N=C(\C)c3ccco3)c3ccccc3n2)c(OC)c1 | -4% | . | ? | -11%[46.1 µM] | -17% | . | 15% | -3%
10 | Clc1ccc(CNCc2cccs2)c(Cl)c1 | -1% | -2% | 1% | 0% | 15% | 3.7% | 0% | 15%
11 | Cc1ccc(-n2c(SCC(=O)c3c(N)n(C4CC4)c(=O)[nH]c3=O)nnc2N2CCOCC2)cc1 | 1% | . | 6%[46.1 µM] | 1% | -15% | . | . | 7%
12 | Cc1c(C(=O)NCc2ccc3c(c2)OCO3)oc2ccc(S(=O)(=O)N3CCCCCC3)cc12 | 15% | ? | 13µM* | -27% | ? | 1.5% | -32% | .
13 | COC(=O)c1ccc(N2CN=C(c3ccc(C)cc3)NC2=S)cc1 | -22% | 5% | -30% | ? | 1% | -9.0% | 1% | -41%
14 | COCCN(CCOC)S(=O)(=O)c1ccc(C(=O)Nc2c(C)n(C)n(-c3ccccc3)c2=O)cc1 | 21% | . | -1%[46.1 µM] | 2% | -19% | . | 5% | 0%
15 | CCC(C)N(NC(C)=O)c1nc(Cl)nc(NC(C)(C)C)n1 (configuration not stated) | 9% | 8% | ? | 14% | 0% | 6.5% | 5% | 1%
16 | CC1(C)CC(NS(=O)(=O)c2ccc(S(=O)(=O)N3CCOCC3)cc2)CCO1 (configuration not stated) | -6% | 6% | -11% | 19%[14.3 µM] | -5% | 1.5% | -6% | 2%
17 | COc1cnc(-c2ccccn2)nc1Sc1ccc(F)cc1 | ? | . | ? | ? | -20% | . | . | -5%
18 | COc1ccc(C2SCCN2C(=S)Nc2ccc(F)cc2)cc1 (configuration not stated) | -24% | -7% | -4% | 2% | 13% | -4.7% | 4% | 15%
19 | COc1ccccc1N(C)S(=O)(=O)c1ccc(C(=O)NC(C)c2ccccc2)cc1 (configuration not stated) | 3% | . | . | . | -9% | . | -1% | -5%
20 | CN(CC(=O)Nc1cccc(F)c1)C(=O)C1CSC2(C)CCC(=O)N12 (configuration not stated) | 6% | . | -3% | 8% | -10% | . | . | 8%
21 | COCCNC(=O)CN1C(=O)NC2(CCCc3cc(OC)ccc32)C1=O (configuration not stated) | -5% | . | . | . | -1% | . | 4% | 0%
22 | Cc1cc(=O)oc2cc(OCC(=O)Nc3ccc4[nH]c(=O)[nH]c4c3)ccc12 | -11% | . | 3% | 7% | 8% | . | . | 3%
23 | Cc1ccc(/C=C/C(=O)OCC(=O)Nc2ccc3[nH]c(=O)[nH]c3c2)o1 | 12% | . | 16% | -10% | -15% | . | . | 1%
24 | O=C(CCCc1ccccn1)c1ccccc1 | -21% | 0% | ? | ? | ? | -2.4% | -3% | .
25 | Cc1nn(C)cc1/C=C/C(=O)c1ccc(O)cc1 | -4% | -12% | ? | ? | 31%[activator] | 2.6% | -12% | 6%
26 | Cc1ccc(CSc2nnc(CCCCCNC(=O)OC(C)(C)C)o2)cc1 | -18% | . | ? | -28% | ? | . | -33% | 0%
27 | CCC1(COC(NC(=O)c2cccnc2)(C(F)(F)F)C(F)(F)F)COC1 | 9% | 14% | -7% | -18% | -2% | 4.2% | ? | -1%
28 | O=C(Nc1ccccc1F)c1nc(SCc2ccc(F)cc2)ncc1Cl | . | 2% | 19%[46.1 µM] | 21%[46.1 µM] | -24% | -4.1% | . | .
29 | COc1ccc([N+](=O)[O-])cc1NC(=O)CC(c1ccccc1)c1ccccc1 | -3% | 25µM* | -21% | -9% | ? | -2.5% | 16% | 9%
30 | CCc1ccccc1NC(=O)Cn1nnc(C(=O)NCc2ccco2)c1N | . | -18% | ? | ? | 3% | -1.1% | . | .
31 | Cc1cccc(C)c1NC(=O)CSc1nnnn1-c1ccc(C(=O)O)cc1 | -8% | -5% | 7% | 3% | 1% | 1.9% | -1% | 1%
32 | COc1ccccc1NC(=O)CSc1nc(O)cc(=O)n1C | 19% | -9% | -1% | ? | 3% | 3.7% | ? | 2%
33 | COc1cccc(N2CCN(C(=O)C3CCC(=O)N(C4CCCCCC4)C3)CC2)c1 (configuration not stated) | -3% | . | ? | ? | ? | . | 22% | 4%
34 | O=Nc1c(-c2ccccc2)[nH]n(-c2ccccc2)c1=O | ? | . | ? | -20%[46.1 µM] | -2% | . | -97% | -11%
35 | CCN(CC)S(=O)(=O)c1ccc(N2CCN(S(=O)(=O)c3ccccc3)CC2)nc1 | 1% | . | 3%[46.1 µM] | 7% | -10% | . | 4% | 0%
36 | Cc1nonc1OC(C)CNCCNc1ccc([N+](=O)[O-])cc1 (configuration not stated) | -3% | . | -9%[46.1 µM] | 11% | -21% | . | 4% | 0%
37 | O=C(Cn1cc2c(n1)CCCC2)Nc1ccccc1Br | 4% | 6% | . | . | -3% | -0.6% | -58% | -2%
38 | Cn1cnc([N+](=O)[O-])c1NCc1ccccc1 | 15% | . | . | . | 1% | . | -4% | -1%
39 | CCCNc1nc2c(c(=O)n(C)c(=O)n2C)n1CC(O)COc1ccccc1 (configuration not stated) | . | 0% | 2%[46.1 µM] | 3%[46.1 µM] | ? | 0.1% | . | .
40 | O=C(Cn1nc(-c2ccc(Cl)cc2)ccc1=O)N1CCC2(CC1)OCCO2 | 1% | . | 4%[46.1 µM] | 2%[46.1 µM] | -10% | . | . | -6%
41 | Cc1cc2c(NC(=O)Nc3ccccc3)cccc2nn1 | 3% | . | 2%[46.1 µM] | -1%[46.1 µM] | 0% | . | 3% | 1%
42 | CCn1cc(/C=C/C(=O)Nc2c(C)nn(Cc3ccccc3)c2C)cn1 | -8% | 12% | 0% | 1% | -27% | -0.8% | 4% | -4%
43 | CCOCCCNC(=O)Cc1c(C(=O)O)[nH]c2ccc(Cl)cc12 | 9% | -6% | . | . | -14% | -3.4% | -1% | 0%
44 | CN1C(=O)C2(OCCCO2)c2cc(Cl)ccc21 | -14% | . | -1% | 5% | -15% | . | 5% | 3%
45 | Cc1cc(C)nc(N2N=C(CSc3ccc(Cl)cc3)CC2=O)n1 | 23% | . | 1%[46.1 µM] | ? | -4% | . | . | 19%
46 | CCOc1ccc(CNC(=O)c2cc3c(=O)oc4ccc(C)cc4c3s2)cc1 | . | 6% | 14%[46.1 µM] | 9%[46.1 µM] | 0% | 1.7% | . | .
47 | CCn1c(=O)cc(OCC(=O)N2CCN(c3ccc(C)cc3)C(C)C2)c2ccccc21 (configuration not stated) | . | 4% | ? | ? | 35µM* | -0.5% | . | .
48 | Cc1ccc(-c2nn(-c3ccccc3)cc2/C=C/C(=O)Nc2nccs2)cc1 | -20% | -7% | ? | -28% | -2% | -8.9% | -9% | -20%
49 | Cc1ccc(NC(=O)COC(=O)Cn2nc(C)c([N+](=O)[O-])c2C)c([N+](=O)[O-])c1 | -19% | 6% | ? | 6% | -18% | -2.2% | 8% | 16%
50 | CCN(CC)S(=O)(=O)c1ccc(OC)c(NC(=O)C(C)Oc2ccc3c(C)cc(=O)oc3c2)c1 (configuration not stated) | 12% | ? | ? | ? | 2% | -5.2% | 19% | 2%
51 | CCOC(=O)c1sc2cccc(F)c2c1S(=O)(=O)Nc1ccccc1F | . | 0% | . | 4%[46.1 µM] | 0% | -8.6% | . | .

Source: PubChem (National Center for Advancing Translational Sciences (NCATS))
